Screens from PubChem BioAssay.
E coli growth – blocks Escherichia coli growth; AID 1053175; OD600 absorbance (no concentration beside the values); OD600, 23 h; active compounds read low; 330,000 compounds, 0.21% hits;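 active = OD600 absorbance below the run mean of sample wells minus 3.6 SD, in any replicate, cut at about 0.56 in these data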;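 also: stock transfer was 300 nL into about 60 µL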
AF4-AF9 inh – blocks AF4 peptide binding to human AF9; inhibition, % at 10 µM; 350,000 compounds, 0.47% hits; AlphaScreen, biotin-AF4 peptide binding to FLAG-AF9;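 active = every replicate reaching a set inhibition limit, whatever the replicate mean, cut at about 25% in these data; inconclusive = mean inhibition reaches that limit but some replicates miss it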;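 also: 0% = plate neutral control median and 100% = total signal loss; the record names both 10 and 1 µM as test concentration; the first replicate is given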
FGF22 binding – binders of recombinant human FGF22 by thermal shift; AID 651658; calls only at 9.99 µM; SYPRO orange fluorescence; percent of sucrose octasulfate shift, DMSO zero; 340,000 compounds, 1.5% hits; Q9HCT0;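 active = melting point raised past a set limit in the mean and every replicate; inconclusive = no clear call; three in four hits are not shown here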
Target sequence (Q9HCT0 whole entry, looked up): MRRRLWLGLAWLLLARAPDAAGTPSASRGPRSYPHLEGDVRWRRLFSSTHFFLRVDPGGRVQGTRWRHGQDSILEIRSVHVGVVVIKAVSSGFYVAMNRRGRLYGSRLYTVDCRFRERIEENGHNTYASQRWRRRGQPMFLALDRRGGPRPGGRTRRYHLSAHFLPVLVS
ALR inh – human ALR oxidase inhibition via reduced H2O2; purified ALR, DTT oxidation, H2O2 HRP-luminol luminescence; 290,000 compounds, 3.8% hits; inhibition, % (no concentration beside the values); AID 485317;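 active = mean and each replicate at 75% or more; inconclusive = only one of the two met; inactive = neither met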;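 also: stock transfer was 7.5 nL into about 7.5 µL; 0% = neutral wells and 100% = wells with inactivated enzyme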
Target sequence (P55789 whole entry, looked up): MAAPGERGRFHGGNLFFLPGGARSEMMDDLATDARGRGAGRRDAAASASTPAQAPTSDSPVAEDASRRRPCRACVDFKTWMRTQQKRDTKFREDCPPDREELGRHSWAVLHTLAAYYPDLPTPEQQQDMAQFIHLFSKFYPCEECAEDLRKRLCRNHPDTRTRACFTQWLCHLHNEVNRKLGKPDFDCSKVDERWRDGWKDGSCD
Vif TR-FRET – HIV-1 Vif–A3G interaction blockers – biochemical, TR-FRET, GST-Vif 1-94, biotin-A3G peptide, dose response retest, primary screen (AID 1117319); TR-FRET GST-Vif / biotin-A3G peptide binding; higher % means a stronger effect; test concentration not given here; strong numbers were not always called active; one-dose inhibition, %; IC50 in µM for titrated hits; 260,000 compounds, 0.57% hits;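 active = above the screen mean plus three standard deviations and confirmed in dose response; inconclusive = results disagree or hit not tested in dose response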;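 also: Vif residues 1-94 fused to GST binding biotinylated APOBEC3G peptide 110-148; 0% = full assay without inhibitor and 100% = GST in place of GST-Vif; retest series ran down from 100 µM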
HNF4A DNA FP – change in binding of human HNF4 alpha to DNA. HNF4a-FITC DNA binding, fluorescence polarization, 1 h. activity change, % at 10 µM. 360,000 compounds, 0.3% hits; in the data active = activity change above about 30%, passing the limit was not always enough;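 also: controls were the assay level and a saturating level of protein; the project sought stronger binding though the title names inhibitors; some compounds called inactive have numbers as strong as hits; positive values seem to mean higher polarization but the record does not say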
Target sequence (P41235 whole entry, looked up): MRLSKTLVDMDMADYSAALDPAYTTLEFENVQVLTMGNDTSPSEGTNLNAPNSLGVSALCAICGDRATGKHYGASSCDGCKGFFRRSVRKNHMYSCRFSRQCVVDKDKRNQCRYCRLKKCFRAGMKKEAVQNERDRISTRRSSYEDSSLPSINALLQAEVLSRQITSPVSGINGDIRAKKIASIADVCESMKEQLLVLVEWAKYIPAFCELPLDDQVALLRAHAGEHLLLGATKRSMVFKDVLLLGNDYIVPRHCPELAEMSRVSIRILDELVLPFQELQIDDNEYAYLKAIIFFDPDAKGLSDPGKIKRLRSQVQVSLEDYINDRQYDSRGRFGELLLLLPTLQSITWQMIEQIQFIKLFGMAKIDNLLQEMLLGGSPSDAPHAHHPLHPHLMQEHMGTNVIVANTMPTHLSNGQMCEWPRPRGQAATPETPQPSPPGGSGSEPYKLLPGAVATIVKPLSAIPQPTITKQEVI
Ecoli rRNA inh – selective bacterial rRNA inhibition in E. coli; E. coli WT GFP vs humanized-ribosome RFP mutants, fluorescence, 24 h; active compounds read low; DMSO median 0, no signal -100; GFP signal change (wild-type ribosome), % (no concentration beside the values); 350,000 compounds, 1.6% hits; AID 720706;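 active = significant combined selectivity score with lowered wild-type GFP, culture density cut under 30%, mutant RFP and density less affected; inactive = any of these conditions unmet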; also: one replicate is shown; some compounds called inactive have numbers as strong as hits
Ecoli rRNA inh OD600 – second read-out of Ecoli rRNA inh, no call of its own (marks repeat the call); OD600 change, %; measured here: OD600 growth;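 optical density of the mix in the first replicate; 0 = DMSO median and -100 = no signal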
Ecoli rRNA inh RFP – second read-out of Ecoli rRNA inh, no call of its own (marks repeat the call); RFP signal change, %; measured here: RFP humanized mutant strains;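 first replicate; 0 = DMSO median and -100 = no signal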
* hit, by the source's call; i = inactive; ? = inconclusive; . = no result given.

Ecoli rRNA inh RFP	FGF22 binding	Ecoli rRNA inh	E coli growth	ALR inh	Ecoli rRNA inh OD600	HNF4A DNA FP	Vif TR-FRET	AF4-AF9 inh	Compound
2.3	i	-1	.	.	-28	4.4	.	-7.9	COc1ccc(-c2coc3c(C(=O)NCCN4CCOCC4)cccc23)c(C)c1
1.8	i	-3	.	.	-3	.	.	6.4	C[C@@H]1CN([C@@H](C)CO)S(=O)(=O)c2ccc(C#CC3CC3)cc2O[C@@H]1CN(C)Cc1cccnc1
4.7	i	6	0.72	-3	3	0.0	0%	5.6	CC(C)C(NS(=O)(=O)c1cccc2nsnc12)C(=O)N1CCn2c1nc1ccccc12 (stereo not drawn)
0.9	i	0	0.73	10	6	0.2	-1%	5.4	O=C(NCCn1ccc2ccccc21)c1ccc(S(=O)(=O)N2CCCCC2)cc1
.	.	.	0.66	-13	.	0.2	-6%	.	Cc1ccc(NC(=O)C(C)Sc2nnc(-c3cccnc3)n2-c2ccccc2)cc1 (stereo not drawn)
-0.6	i	12	0.69	.	4	3.3	9%	1.0	COc1cc(C(=S)N2CCOCC2)cc(OC)c1O
-2.2	i	5	.	.	-9	.	.	-4.5	C[C@H]1CN([C@@H](C)CO)C(=O)c2cc(C3=CCCC3)cnc2O[C@@H]1CN(C)Cc1ccc(C(=O)O)cc1
.	.	.	0.64	-6	.	.	-4%	.	COc1ccc(-c2csc(NC(=O)/C(N=Nc3ccccc3)=C(\C)O)n2)cc1
-1.4	i	3	0.67	.	8	-3.2	.	?	Cc1ccc(S(=O)(=O)N2CCN(C(=O)c3cc(S(=O)(=O)N4CCOCC4)c(Cl)cc3Cl)CC2)cc1
2.7	i	11	0.67	-5	1	0.0	.	-2.6	Cc1ccc(CNC(=O)CN(C)S(=O)(=O)c2ccc(F)cc2)cc1
.	.	.	0.77	-6	.	0.4	7%	.	COc1ccccc1C(=O)Nc1ccccc1N1CCN(S(C)(=O)=O)CC1
-2.5	.	-4	0.7	3	-9	-2.1	6%	-3.6	NNc1nc2cccnc2n(CCNc2ncc(C(F)(F)F)cc2Cl)c1=O
-5.1	i	-30	0.64	2	-28	-1.6	2%	-1.2	Nc1nc2ccc(C(=O)NCCOC(=O)C3CCCCC3)cc2s1
.	.	.	0.65	5	.	1.4	-60%	.	Cc1sc2ncnc(Sc3nnnn3-c3ccccc3)c2c1C
3.8	i	-5	.	.	4	2.0	-5%	3.0	COc1ccc(S(=O)(=O)N2CCN(C(=O)c3ccc(COc4ccccc4)o3)CC2)cc1
.	.	.	0.7	5	.	-0.8	5%	.	Nc1nc(NCc2c(F)cccc2Cl)nn1-c1ccccc1
.	i	.	0.65	.	.	-1.3	-11%	-0.4	Cc1cc(C)c(NC(=O)CN(C)CC(=O)N(C)CC(=O)Nc2c(Cl)cccc2Cl)c(C)c1
1.2	i	1	0.69	-4	2	-1.5	.	-0.6	Cc1csc(CNC(=O)c2ccc(OC3CCN(CCc4ccccc4)CC3)cc2)n1
1.2	i	-4	.	.	-6	.	.	1.3	COc1ccc2c3c([nH]c2c1)[C@@H](CO)N(Cc1cccc(Cl)c1)CC31CN(C(C)=O)C1
.	.	.	0.75	-9	.	-0.1	-8%	.	CCN1CCN(C(c2ccccc2F)c2nnnn2Cc2ccc3c(c2)OCO3)CC1 (stereo not drawn)
-0.7	i	7	.	.	14	0.7	.	-1.7	COC(=O)c1cnc(NC(=O)C2(C)CCCN(C(C)=O)C2)s1 (stereo not drawn)
1.5	i	5	0.74	.	3	-8.2	?	4.9	O=C(Cc1cc(=O)[nH]c(=O)[nH]1)NCCN1CCOCC1
-5.0	i	4	.	.	23	.	.	-2.6	C[C@H](CO)N1C[C@H](C)[C@@H](CN(C)Cc2ccc(F)cc2)Oc2ncc(-c3cncnc3)cc2C1=O
.	.	.	0.73	4	.	1.3	7%	.	COC(=O)Cc1[nH]nc2c1C(c1cccc(OC)c1OC)C(C#N)=C(N)O2 (stereo not drawn)
.	.	.	0.67	7	.	-0.5	-2%	.	Cn1c(SCC(=O)Nc2nccs2)nnc1-c1ccco1
0.1	.	14	0.64	-4	4	0.2	.	-1.4	COc1ccc(S(=O)(=O)N2CCCC2)cc1C(=O)O
.	.	.	0.72	0	.	-0.6	-3%	.	N=c1n(CCO)c2ccccc2n1CCOc1ccccc1
2.0	i	1	.	.	1	.	.	-0.5	C[C@H]1CN([C@@H](C)CO)C(=O)c2cc(NS(=O)(=O)c3ccccc3)ccc2O[C@H]1CN(C)Cc1ccc2c(c1)OCO2
32	i	-1	.	.	-7	2.7	.	-4.2	N#Cc1ccc(-c2nc3c4ccccc4ccn3c2Cc2cccc(Cl)c2)cc1
-6.5	i	-6	0.73	18	-9	-3.2	.	4.3	Cc1ccc(C2=NS(=O)(=O)N(C)C(C(=O)NCc3cccs3)=C2)cc1
.	.	.	0.71	2	.	-0.5	.	.	Cc1cccn2c(=O)c(/C=C(\C#N)S(=O)(=O)c3ccccc3)c(Oc3ccc(Cl)cc3)nc12
.	.	.	0.72	2	.	2.2	-3%	.	CC1(C)CC(n2c(=S)[nH]c3ccccc3c2=O)CCO1 (stereo not drawn)
0.0	i	3	.	.	9	.	.	1.8	COc1ccc(CNC(=O)C[C@@H]2C[C@H]3c4cc(NC(=O)CN(C)C)ccc4O[C@H]3[C@H](CO)O2)cc1
1.9	i	4	0.7	.	1	3.5	-3%	8.1	COc1cc(/C=C(\C#N)C(=O)NCC2CCCO2)ccc1OCCC(C)C (stereo not drawn)
.	.	.	0.66	-16	.	4.5	?	.	CCOC(=O)CSc1nnc(-c2cccc(Cl)c2)n1CC
.	.	.	.	-8	.	0.9	2%	.	CC1(C)CC(=O)C2=C(C1)OC(/N=C/N1CCOCC1)=C(C#N)C2c1ccccc1 (stereo not drawn)
.	.	.	0.68	-6	.	0.4	9%	.	CCOC(=O)C(C)Oc1nc(Oc2ccccc2)nc(N(C)C)n1 (stereo not drawn)
6.7	i	-28	.	3	-42	-2.4	.	-7.7	C=CCn1c2ccccc2c(=O)c2cc(C#CC[C@@H](C)O)ccc21
.	i	.	0.58	-5	.	2.7	.	3.6	COc1ccc(CCN(C)CC(=O)Nc2ccc(F)c(Cl)c2)cc1OC
-1.0	i	1	0.69	0	2	-1.6	-3%	0.4	Cc1ccc(CC(=O)NCc2ccc(F)cc2)cc1
.	.	.	0.67	0	.	3.1	5%	.	O=C(OCc1ccccc1)c1ccc(Br)o1
-5.2*	i	-30*	0.67	1	-12*	-4.1	1%	0.0	CCCc1nc2oc3ccccc3c(=O)c2c(=O)n1-c1ccccc1
.	.	.	0.76	-1	.	-0.3	-3%	.	CC(=O)Nc1cccc(Cl)c1C(=O)O
.	.	.	0.72	.	.	3.2	16%	.	CC1CCCCN1CC(=O)Nc1sc2c(c1C#N)CCC2 (stereo not drawn)
4.1	i	17	0.64	.	-5	-1.1	.	-4.3	O=C(NC1CCCCC1)c1cc(S(=O)(=O)N2CCCC2)ccc1Cl
-1.7	i	15	0.63	-13	3	-3.2	-9%	-1.8	O=C1CCC(C(=O)Nc2nnc(C3CC3)s2)=NN1
11	i	3	0.68	8	4	-2.3	6%	1.5	O=C(O)[C@@H]1Cc2c([nH]c3ccccc23)C2CCC(=O)N21 (stereo partly drawn)
.	.	.	.	-1	.	-0.3	-3%	.	CCCCCOC(=O)c1ccc(NC(=O)c2ccco2)cc1
.	.	.	0.69	-18	.	2.2	-6%	.	Cc1cccc(Oc2nc(-c3cccc([N+](=O)[O-])c3)nc3ccccc23)c1C
3.1	i	12	0.69	-12	8	0.9	-8%	0.6	COC(=O)CNC(=O)COC(=O)Cc1ccc(Cl)cc1
0.5	i	11	.	-3	6	4.6	-2%	1.9	CCCCCCC1/C(=N\NC(=O)c2ccccc2)CCC1C(=O)OC (stereo not drawn)
28	i	10	0.71	.	11	5.6	-6%	-1.2	CCOC(=O)c1c(NC(=O)CSc2cccc[n+]2[O-])sc(C(=O)Nc2ccccc2)c1C
.	.	.	0.71	.	.	-0.4	6%	.	CCOC(=O)C1Oc2ccccc2C(C(=O)OC)=C1C(=O)OC (stereo not drawn)
.	.	.	0.65	4	.	2.6	?	.	O=C(CCSc1ccccc1)N1CCOCC1
-2.2	i	-1	.	.	-1	.	.	-0.4	O=C(N[C@H]1CC[C@@H](CCNC(=O)c2ccccc2F)O[C@@H]1CO)c1ccc2c(c1)OCO2
.	.	.	0.72	-2	.	0.8	.	.	COc1ccc2c(c1)c1nc3ccccc3nc1n2Cc1ccc(OC(C)C)c(OC)c1
26	i	6	0.78	-17	9	-1.3	-6%	4.3	CC(=O)NNc1cc(N2CCOCC2)nc(N2CCOCC2)n1
.	.	.	0.65	0	.	2.1	-14%	.	CCn1cc(C(=O)NCc2ccccc2F)c(=O)c2ccc(C)nc21
.	.	.	.	5	.	3.0	1%	.	Clc1cccc(/C=N/Nc2nc(Cl)nc3ccccc23)c1
.	.	.	0.69	-17	.	1.5	0%	.	COc1ccc(C(=S)N2CCCC2)cc1OC

Additional compounds follow.
Ecoli rRNA inh RFP	FGF22 binding	Ecoli rRNA inh	E coli growth	ALR inh	Ecoli rRNA inh OD600	HNF4A DNA FP	Vif TR-FRET	AF4-AF9 inh	Compound
0.9	i	16	0.65	-9	18	1.1	.	-1.5	COc1cc(NC(=O)c2cccc(S(=O)(=O)N3CCCCC3)c2)cc(OC)c1OC
.	.	.	0.68	-1	.	3.6	9%	.	Cc1ccc2c(c1)C1(C(=O)N2C)N2CC3(C)CN1CC(C)(C2)C3=O (stereo not drawn)
-4.8	i	-14	.	.	-9	11	.	2.2	COc1ccc2c(CN3CCN(c4ccccc4OC)CC3)cc(=O)oc2c1
2.2	.	4	0.65	-8	4	1.1	-2%	-0.4	CC(C)Sc1nc2ccccc2[nH]1
1.5	i	1	.	.	5	.	.	-11	COCC(=O)N1C[C@H](C)[C@H](OC)CN(C)C(=O)c2ccc(NC(=O)c3ccccc3)cc2OC[C@@H]1C
.	.	.	0.69	-5	.	-1.6	-3%	.	Cc1cc(C)nc(NS(=O)(=O)c2ccc(N3C(=O)C4C5C=CC(C5)C4C3=O)cc2)n1 (stereo not drawn)

An excerpt; count on the stated rates, not on these rows.
